Hedgehog: Hh protein inhibition, biochemical readout – plate reader, single concentration, primary screen (AID 588832); inhibition, % at 30.3 µM; 8,000 tested, under 10 active; Biochemical plate reader assay, Hedgehog inhibition; active compounds read high; in the data active = inhibition from about 57%;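 also: 0% = neutral control wells and 100% = positive control wells; cholesterol-driven self-cleavage of fly hedgehog protein by fluorescence polarization; read one hour after cholesterol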
Active calls of the source: *. The list is partial, so the mix of outcomes need not match the whole.

SMILES	Hedgehog
S=C(NCc1ccc2[nH]c3c(c2c1)CCCC3)Nc1ccccc1Cl	-4
O=C(CCn1c(=O)oc2ccccc21)NCc1ccco1	-2
CCC(C)[C@H](NC(=O)N1CC(=O)Nc2ccccc21)C(=O)N[C@H](Cc1c[nH]c2ccccc12)C(=O)O (some centres not stated)	12
Cc1c(C(=O)OCc2ccccc2)[nH]c2c1C(=O)CC(c1ccco1)C2 (configuration not stated)	28
CC(=O)OC(C)=O	7
COc1ccc(S(=O)(=O)N2CCOC2CNC(=O)C(=O)NCCc2ccccc2)cc1 (configuration not stated)	5
O=C(Oc1cccc2ccccc12)c1ccccc1	7
COc1ccc(/C=C2\Oc3cc(OCC(=O)N4CCC[C@H]4C(=O)O)ccc3C2=O)cc1OC	2
COc1ccc(N=C2SC(C(=O)N3CCN(c4ccccc4)CC3)CC(=O)N2C)cc1 (configuration not stated)	2
C[C@H](NC(=O)[C@H]1N2C(=O)c3ccccc3C2SC1(C)C)C(=O)N1CCC[C@H]1C(=O)O (some centres not stated)	-5
CC(C)[C@H](NC(=O)[C@H](Cc1ccccc1)n1c(=O)[nH]c2ccccc2c1=O)C(=O)N1CCC[C@@H]1C(=O)O	10
O=C(O)C=C(Br)Br	2
CC(C)c1nc(SCC(=O)Nc2cccc(C(F)(F)F)c2)c2c(=O)n(C)c(=O)n(C)c2n1	10
COc1cc(OC)c(C2Oc3nc(SC)nnc3-c3ccccc3N2C(C)=O)cc1OC (configuration not stated)	25
Cc1nnc(NC(=O)CSCc2ccccc2)s1	5
Cc1cc(C)cc(Nc2cc(C)nc3nc(C)nn23)c1	8
COc1ccccc1C1C(C(N)=O)=C(C)Nc2nc(-c3ccc(Cl)cc3)nn21 (configuration not stated)	19
O=C(C1CCN(c2nnc(-n3cccc3)s2)CC1)N1CCN(Cc2ccc3c(c2)OCO3)CC1	19
Cc1oc(-c2cccc(Cl)c2)nc1CN1CCCC(C(=O)NC(C)c2ccc3c(c2)OCCO3)C1 (configuration not stated)	20
C=Cc1c(C)c2cc3[nH]c(cc4nc(cc5nc(cc1[nH]2)C(C)=C5CCC(=O)O)C(CCC(=O)O)=C4C)c(C)c3C=C	48
Cc1cccc(-n2ccnc2SCC(=O)Nc2nnc(C)s2)c1	5
CCCCn1c(CCC(=O)O)ccc1-c1cccs1	-4
CCc1ccccc1NC(=O)c1cc(C2CC2)on1	2
O=C(COc1cc2oc(=O)cc(-c3ccccc3)c2cc1Cl)NCC1CCC(C(=O)O)CC1 (configuration not stated)	2
COc1ccc(OC)c(Nc2cc(C)nc3nc(C)nn23)c1	6
CCOC(=O)N1CCC(NC(=O)C2CCCN(Cc3nc(-c4cccc(Cl)c4)oc3C)C2)CC1 (configuration not stated)	-1
CC(C)(C)NC(=O)C1CCCN(S(=O)(=O)c2cccc3cccnc23)C1 (configuration not stated)	9
O=[N+]([O-])c1cc(C(F)(F)F)ccc1Cl	12
COc1ccc(NC(=O)C2CCCN(S(=O)(=O)c3cccc4cccnc34)C2)c(OC)c1 (configuration not stated)	20
COc1ccc(NS(=O)(=O)c2cc3c(cc2C)N(C(C)=O)CCO3)c(OC)c1	2
O=C(c1ccccc1)c1ccccc1	2
CCOC(CNC(=O)CN1C(=O)COc2ccc(S(=O)(=O)N3CC(C)CC(C)C3)cc21)OCC (configuration not stated)	6
CC(NS(=O)(=O)c1ccc2c(c1)C(C)(C)C(=O)N2C)c1ccccc1 (configuration not stated)	0
Cc1ccc2c(c1)NC(=O)C(CC(=O)NCCCN1CCCC1)O2 (configuration not stated)	17
COc1ccc(S(=O)(=O)Cc2ccc(C(=O)NC3CC3)o2)cc1	20
COc1ccc2[nH]c3c(c2c1)CCN1C(=O)N([C@@H](C)C(=O)NC2CCCC2)C(=O)[C@]31C	-3
CCOCCCNC(=O)Cn1ncc2c(=O)oc3ccccc3c21	4
COc1ccc(OC)c(NC(=O)CSc2nnc(Cc3cccn3C)n2-c2ccc(F)cc2)c1	13
Clc1ccc(C2CC(c3ccccc3)Nc3ncnn32)cc1 (configuration not stated)	15
CCCn1cc(SCC(N)=O)c2ccccc21	11
Cc1ccc(-c2nc(CS(=O)CC(=O)NCc3ccccc3)c(C)o2)cc1 (configuration not stated)	2
Cc1ccccc1-c1nc(CN2CCC(C(=O)N3CCC(C(N)=O)CC3)CC2)c(C)o1	8
COC(=O)c1c(N2C(=O)CCC2=O)sc2c1CCCC2	15
Cn1cc(S(=O)(=O)N2CCCC2)cc1C(=O)NCCc1ccccc1	-5
CC(=O)Nc1ccc(S(=O)(=O)N2CCN(c3cc(C)ccc3C)CC2)cc1	7
Cc1cc2cc(CNC(=O)Cc3cccs3)ccc2n1C	3
COc1ccc(S(=O)(=O)N2CCOC2CNC(=O)C(=O)NCCc2c[nH]c3ccccc23)cc1C (configuration not stated)	5
CC(=O)c1ccc(N2CCN(C(=O)c3cc4c(-c5ccccc5F)nn(C)c4s3)CC2)cc1	15
O=C(O)CCCn1nc(-c2ccccc2)c2ccccc21	7
COc1cc(=O)n(C)c2c(OCC3OC(C)(C)OC3(C)C)cccc12 (configuration not stated)	7

Other records.
SMILES	Hedgehog
COc1ccc(C(=O)N2CCN(c3c(C)cccc3C)CC2)cc1OC	17
Cc1cc(C)c(S(=O)(=O)N2CCOC2CNC(=O)C(=O)NCc2cccnc2)c(C)c1 (configuration not stated)	12
CCn1cc(C2=NCCO2)c2ccccc21	5
Cc1ccc2oc(=O)c3cnn(CC(=O)N4CCCCCC4)c3c2c1	3
Cc1cccc(C)c1NC(=O)C1NC(=O)CC1c1ccccc1 (configuration not stated)	5
C[C@H](NC(=O)[C@H](Cc1ccccc1)n1c(=O)[nH]c2ccccc2c1=O)C(=O)N1CCC[C@H]1C(=O)O	8
COc1ccc(CNC(=O)CCC(=O)n2ncc3cc(C)ccc32)cc1	6
CCCc1cc(C(=O)NCC(C)C)no1	5
CCc1ccc(C2N(c3ccc(OC)cc3)C(=O)C3CCCN32)cc1 (configuration not stated)	11
O=C(Cn1cc2c(n1)CCCC2)N1CCCc2ccccc21	-4

Structural class, those above containing two or more sulfur atoms
SMILES	Hedgehog
Cc1nnc(NC(=O)CSCc2ccccc2)s1	5
Cc1cccc(-n2ccnc2SCC(=O)Nc2nnc(C)s2)c1	5

Carrying on:
SMILES	Hedgehog
COc1ccccc1C(=O)Nc1nc2cc3c(cc2s1)OCCO3	4
COc1ccc2nc(NC(=O)C3CCCN(S(=O)(=O)c4c(C)noc4C)C3)sc2c1 (configuration not stated)	9
Cc1cc(Nc2ccc(F)c(Cl)c2)n2ncnc2n1	17
CC(C)Cc1cc(C(=O)Nc2sc3c(c2C#N)CCCC3)no1	12
CCCCOC(=O)C(C)Oc1ccc(=O)n(-c2ccccc2)n1 (configuration not stated)	1
O=c1cc(-c2ccccc2)oc2ccccc12	7
Cc1ccc(C(=O)NCCc2csc(-c3cccnc3)n2)cc1	2
Cc1ccccc1NC(=O)C1CCCN(S(=O)(=O)c2cccc3cccnc23)C1 (configuration not stated)	5
Cn1cccc1Cc1nnc(SCC(=O)N2CCCCCC2)n1CCc1ccccc1	15
COc1ccccc1CNC(=O)c1ccc(Cl)c(NC2=NC3CS(=O)(=O)CC3S2)c1 (configuration not stated)	13

Continuation:
Compound | Hedgehog
CC(NC(=O)[C@H](Cc1c[nH]c2ccccc12)NC(=O)[C@@H]1Cc2ccccc2CN1)c1ccccc1 (some centres not stated) | 5
CCC(C)NC(=O)c1cn(CC)c2ccc(S(=O)(=O)N(C)C)cc2c1=O (configuration not stated) | 5
Cc1ccc(N2CCN(C(=O)c3ccccc3F)CC2)c(C)c1 | 5
CCOC(=O)c1[nH]c(C)c(C(=O)Nc2ccccc2C)c1C | 15
CC(C)C(=O)COc1c2occc2cc2ccc(=O)oc12 | 10
COC(=O)c1c(NC(C)=O)sc2c1CCN(Cc1ccccc1)C2 | 5
Clc1ccccc1CSc1nc2ccncc2[nH]1 | 6
O=C(Nc1ccc(F)cc1)C1CCCN(S(=O)(=O)c2cccc3cccnc23)C1 (configuration not stated) | 17
c1ccc(N2CCN(Cc3cn4cccnc4n3)CC2)cc1 | 11
Cc1ccc(-c2nc(CS(=O)(=O)CC(=O)N3CCc4ccccc4C3)c(C)o2)cc1 | -8
COc1ccc(OC)c(NS(=O)(=O)c2ccc3c(c2)C(C)(C)C(=O)N3C)c1 | 8
Cc1ccc(C2=NS(=O)(=O)N(C)C(C(=O)N3CCOCC3)=C2)cc1 | 5
O=c1cc(-c2ccc(O)cc2)oc2c(O)c(O)c(O)c(O)c12 | 89*
CCCCCC(=O)N1CCN(c2ccc(C(C)=O)cc2F)CC1 | -1
Cc1ccc(CCNS(=O)(=O)c2cc3c(cc2C)NC(=O)CO3)cc1 | 2
CCCCNC(=O)C1CCN(S(=O)(=O)c2c(C)noc2/C=C\c2ccc(OC)cc2)CC1 | 5
O=C(Cn1cc2c(n1)CCCC2)Nc1ccccc1Br | 21
O=C(OCn1nnc2ccccc2c1=O)c1ccco1 | 10
COc1ccc(C(=O)CCC(=O)N2CCN(c3cccc(Cl)c3)CC2)cc1 | 17
O=C(NCc1ccc2c(c1)OCO2)Oc1ccccc1 | 0
O=C(C1CCCN(S(=O)(=O)c2cccc3cccnc23)C1)N1CCN(c2ccccc2F)CC1 (configuration not stated) | 15
Cc1cc(Cl)cc2sc(NC(=O)c3ccco3)nc12 | 4
N#CCCN1CCN(S(=O)(=O)c2ccc(S(=O)(=O)NCC3CCCO3)cc2)CC1 (configuration not stated) | 17
COc1cc(CNC(=O)CCC(=O)N2C[C@H]3C[C@H](C2)c2cccc(=O)n2C3)cc(OC)c1OC | 0

Some of the entries so far, as labelled records.
O=C(OCn1nnc2ccccc2c1=O)c1ccco1
  Hedgehog = 10

COc1cc(CNC(=O)CCC(=O)N2C[C@H]3C[C@H](C2)c2cccc(=O)n2C3)cc(OC)c1OC
  Hedgehog = 0

Cc1cc(Cl)cc2sc(NC(=O)c3ccco3)nc12
  Hedgehog = 4

Continuation:
Compound | Hedgehog
CCOc1ccc(-c2nc(CS(=O)(=O)CC(=O)NCc3ccc(F)cc3)c(C)o2)cc1 | 4
COc1cccc(-c2nc(CS(=O)CC(=O)NC3CCCCC3)c(C)o2)c1 (configuration not stated) | 11
CC1=C(C(N)=O)C(c2ccccc2)n2nc(-c3cccs3)nc2N1 (configuration not stated) | 10
O=C(O)CCC(=O)NCc1ccc2[nH]c3c(c2c1)CCCC3 | 0
CC(C)N(Cc1ccccc1)C(=O)c1cnc2n(c1=O)CCS2 | 4
COc1ccc(N2C(=O)C3CCCN3C2c2ccccc2)cc1 (configuration not stated) | 11
CCc1ccccc1S(=O)(=O)Cc1ccc(C(=O)NCc2ccc3c(c2)OCO3)o1 | 17
Cc1ccc(S(=O)(=O)N2CCOC2CNC(=O)C(=O)NCc2ccco2)cc1 (configuration not stated) | 4
CCOC(=O)N1CCC(N2C(=O)c3ccccc3C2Nc2ccccc2)CC1 (configuration not stated) | 0
Cc1ccccc1-c1nc(CN2CCC(C(=O)NC3CCN(Cc4ccccc4)CC3)CC2)c(C)o1 | 2
Cc1ccc(S(=O)(=O)n2c(=O)oc3ccccc32)cc1 | 2
Cc1ccc(C2=NS(=O)(=O)N(C)C(C(=O)NCc3ccccc3)=C2)cc1 | 4
O=C(c1cc(-c2ccc(O)cc2)on1)N1CCN(c2ccc(F)cc2)CC1 | 5
O=C(NCc1cn2ccccc2n1)c1ccc(Br)o1 | 7
COc1ccc(NC(=O)[C@@H](NC(=O)N2C[C@H]3C[C@@H](C2)c2cccc(=O)n2C3)C(C)C)cc1OC | 13
Cc1ccc(CNC(=O)CCC(=O)N2CC(C)Oc3ccc(Cl)cc32)cc1 (configuration not stated) | 4
COC(=O)c1ccc2c(c1)N(C)CCS2 | 15
CCOc1ccc(-c2cc(CCCC(=O)NCc3ccc(C)cc3)no2)cc1 | 12
O=C(O)[C@@H](c1ccccc1)N1Cc2ccccc2C1=O | 5
C[C@]1(CC/C(=C/CO)CO)[C@H](CO)CC[C@@]23COC(=O)C2=CCC[C@@H]31 | 5
COCCCNC(=O)CS(=O)(=O)Cc1nc(-c2ccccc2C)oc1C | 6
Cn1cccc1Cc1nnc(SCC(=O)Nc2ccc(F)cc2)n1-c1ccc(F)cc1 | 15
Cc1ccc2c(c1)N(CC(=O)NC1CCCC(C)C1C)C(=O)c1cccnc1O2 (configuration not stated) | -3
CN(CCCNC(=O)c1cn(C)c2ccc(S(=O)(=O)N(C)C)cc2c1=O)c1ccccc1 | 9

Four of the compounds above, field by field:
Cn1cccc1Cc1nnc(SCC(=O)Nc2ccc(F)cc2)n1-c1ccc(F)cc1
  Hedgehog: 15
CCOc1ccc(-c2cc(CCCC(=O)NCc3ccc(C)cc3)no2)cc1
  Hedgehog: 12
O=C(O)[C@@H](c1ccccc1)N1Cc2ccccc2C1=O
  Hedgehog: 5
CN(CCCNC(=O)c1cn(C)c2ccc(S(=O)(=O)N(C)C)cc2c1=O)c1ccccc1
  Hedgehog: 9

Next part.
Compound | Hedgehog
S=c1sc2c(N3CCOCC3)ncnc2n1-c1ccccc1 | 11
COc1ccc(CNC(=O)[C@@H](NC(=O)C2CCN(C(=O)[C@@H](N)CCSC)CC2)C(C)C)cc1 | 12
Cc1cccc(NC(=O)C2NC(=O)CC2c2ccccc2)c1C (configuration not stated) | 9
COc1ccc(N(CC(=O)Nc2ccccc2C(F)(F)F)C2=NC3CS(=O)(=O)CC3S2)cc1 (configuration not stated) | 5
COC(=O)c1cc(NC(=O)CN2CCc3cc4c(cc3C2)OCCCO4)cc(C(=O)OC)c1 | 2
CCN(C(=O)C1CCN(c2nc(-c3ccc(OC)cc3)no2)CC1)c1ccccc1 | 9
COc1ccc(NC(=O)CN2C(=O)CSc3ncccc32)cc1 | 4
Cc1ccc(-c2nc(SCC(=O)NCC3CCCO3)c(-c3ccc(C)cc3)[nH]2)cc1 (configuration not stated) | 5
Cc1cc(OCC(=O)N[C@@H](CSCc2ccccc2)C(=O)O)c2c(C)c(C)c(=O)oc2c1 | 11
COc1ccc(-c2nc(CCNS(=O)(=O)c3ccc4c(c3)OCCO4)cs2)cc1 | 1
O=C(Nc1ccc(O)cc1)C1CCCN1S(=O)(=O)c1ccc(F)cc1 (configuration not stated) | 17

Screens: PubChem BioAssay, Broad Institute
